Assay outcomes (PubChem BioAssay)
Env fusion inh: inhibitors of HIV Env-mediated cell fusion; HeLa-JRFL Env/CEM21 cell fusion, luciferase; inhibition, % at 12.3 µM; 360,000 tested, 1.1% active; AID 651610;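 active = mean replicate inhibition score of at least 50 and every replicate individually at or above 50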;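 also: 0% = plate neutral controls and 100% = maraviroc near 300 nM; one replicate is shown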
Yeast UUG start: alters start codon recognition fidelity in yeast; 350,000 tested, 0.13% active; AID 602363; activity score, % at 18.7 µM; S. cerevisiae UUG-firefly luciferase reporter, luminescence/redox ratio;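 active = replicate mean at a twofold rise or more, about +100% in these data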;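 also: firefly luciferase made from a UUG start codon reports start codon fidelity; reporter light over untreated wells divided by growth signal over untreated wells; some hits fall short of that in this replicate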
The depositor's hits bear a star; [ ] = another dose, or the depositor's remark. Not all compounds are listed, so the mix of outcomes need not match the whole.

| Env fusion inh | Yeast UUG start | Molecule |
| --- | --- | --- |
| -19[16.7 µM] | 86 | CC(C)C#Cc1ccc([C@H]2[C@H](C#N)N(C(=O)c3ccccn3)[C@H]2CO)cc1 |
| 18[16.7 µM] | 17 | C[C@@H]1CN([C@@H](C)CO)C(=O)c2cc(-c3ccc(F)cc3)cnc2O[C@@H]1CN(C)C(=O)C1CCC1 |
| -19[16.7 µM] | -11 | Cc1ccc(S(=O)(=O)N(C)C[C@H]2OCCCC[C@H](C)Oc3ccc(NS(=O)(=O)c4ccc(F)cc4)cc3C(=O)N([C@H](C)CO)C[C@H]2C)cc1 |
| -15[16.7 µM] | -15 | CC(C)CC#Cc1ccc2c(c1)O[C@H](CN(C)Cc1ccccn1)[C@H](C)CN([C@@H](C)CO)S2(=O)=O |
| 3[16.7 µM] | -4 | CC(C)CC#Cc1ccc2c(c1)O[C@H](CN(C)C(=O)CN(C)C)[C@@H](C)CN([C@H](C)CO)S2(=O)=O |
| -4[16.7 µM] | 17 | C[C@H](CO)N1C[C@H](C)[C@@H](CN(C)C(=O)C2CCOCC2)Oc2ncc(-c3ccncc3)cc2C1=O |
| 19[16.7 µM] | 3 | CNC(=O)C[C@H]1CC[C@@H]2[C@@H](COc3ccc(NC(=O)Nc4ccc(F)c(F)c4)cc3C(=O)N2C)O1 |
| 26[16.7 µM] | -9 | C/C=C/c1ccc2c(c1)O[C@@H](CN(C)C(=O)c1cccc(F)c1)[C@@H](C)CN([C@H](C)CO)S2(=O)=O |
| -12[16.7 µM] | -12 | C[C@@H]1CN([C@H](C)CO)C(=O)c2cc(NC(=O)CCCN(C)C)ccc2O[C@H]1CN(C)Cc1ccc(C(F)(F)F)cc1 |
| 3[16.7 µM] | 2 | Cc1ccc(S(=O)(=O)N(C)C[C@H]2Oc3ccc(NS(=O)(=O)c4c(C)noc4C)cc3C(=O)N([C@@H](C)CO)C[C@@H]2C)cc1 |
| -15[16.7 µM] | 6 | C[C@H](CO)N1C[C@H](C)[C@@H](CN(C)C(=O)Nc2ccc(F)cc2)Oc2c(NS(=O)(=O)c3ccc(F)cc3)cccc2C1=O |
| -25 | 8 | CN(C)C(=O)CCc1ccc2c3c([nH]c2c1)[C@]1(C)[C@@H](C(=O)N2CCCCC2)C[C@H](CC(=O)NCc2cccc(C(F)(F)F)c2)C(=O)N1CC3 |
| 31[16.7 µM] | -13 | COc1ccc(S(=O)(=O)N(C)C[C@H]2OCCCC[C@H](C)Oc3ccc(NC(=O)Nc4cccc5ccccc45)cc3C(=O)N([C@H](C)CO)C[C@H]2C)cc1 |
| -15[16.7 µM] | 9 | C[C@@H]1CCCCO[C@@H](CN(C)Cc2ccccc2)[C@@H](C)CN([C@@H](C)CO)C(=O)c2cc(N(C)C)ccc2O1 |
| 1[16.7 µM] | -17 | C[C@@H]1CN([C@H](C)CO)C(=O)Cc2cc(NS(=O)(=O)c3ccc(F)cc3)ccc2O[C@H]1CN(C)S(C)(=O)=O |
| -2[16.7 µM] | 4 | C[C@H](CO)N1C[C@H](C)[C@H](CN(C)C(=O)Nc2cccc3ccccc23)Oc2ccc(NC(=O)CCC(F)(F)F)cc2C1=O |
| -55[16.7 µM] | 2 | COc1ccc(CN(C)C[C@H]2Oc3ccc(NC(=O)Cc4cn(C)c5ccccc45)cc3CC(=O)N([C@H](C)CO)C[C@H]2C)cc1 |
| -38[16.7 µM] | -8 | COCC#Cc1ccc2c(c1)O[C@H](CN(C)C(=O)C1CCCCC1)[C@@H](C)CN([C@H](C)CO)S2(=O)=O |
| 0[16.7 µM] | -14 | C[C@@H]1CN([C@@H](C)CO)C(=O)c2cc(-c3cncnc3)cnc2O[C@@H]1CN(C)Cc1cncnc1 |
| -64[16.7 µM] | -1 | C[C@H]1CN([C@@H](C)CO)C(=O)c2cc(C3=CCCC3)cnc2O[C@H]1CN(C)C(=O)C1CCC1 |
| -3[16.7 µM] | -14 | Cc1noc(C)c1NC(=O)N(C)C[C@@H]1Oc2c(NC(=O)C3CC3)cccc2C(=O)N([C@@H](C)CO)C[C@H]1C |
| 0[16.7 µM] | -11 | C[C@@H]1CN([C@H](C)CO)S(=O)(=O)c2ccc(-c3ccncc3)cc2O[C@H]1CN(C)C |
| 1[16.7 µM] | 1 | C[C@@H]1CCCCO[C@H](CN(C)C(=O)C2CCCCC2)[C@@H](C)CN([C@@H](C)CO)C(=O)c2cc(NC(=O)c3ccccc3)ccc2O1 |
| -21[16.7 µM] | 30 | Cc1noc(C)c1S(=O)(=O)Nc1ccc2c(c1)C(=O)N([C@@H](C)CO)C[C@H](C)[C@H](CN(C)C(=O)CCC(F)(F)F)OCCCC[C@@H](C)O2 |
| -15[16.7 µM] | 23 | Cc1ccccc1-c1cnc2c(c1)C(=O)N([C@H](C)CO)C[C@H](C)[C@H](CN(C)C(=O)CN(C)C)O2 |
| 6[16.7 µM] | 17 | C[C@H](CO)N1C[C@H](C)[C@H](CN(C)Cc2ccc(C(=O)Nc3ccccc3N)cc2)Oc2c(NC(=O)C3CCCCC3)cccc2C1=O |
| 10[16.7 µM] | -9 | CC(=O)Nc1ccc2c(c1)C(=O)N(C)[C@@H]1CC[C@@H](CC(=O)NCc3ccc4c(c3)OCO4)O[C@H]1CO2 |
| 3[16.7 µM] | -8 | O=C(C[C@@H]1C[C@H]2c3cc(NC(=O)C4CCC4)ccc3O[C@H]2[C@@H](CO)O1)NCc1ccncc1 |
| -19[16.7 µM] | 7 | C[C@H](CO)N1C[C@H](C)[C@@H](CN(C)C(=O)c2ccccn2)Oc2cc(C#CC3CC3)ccc2S1(=O)=O |
| -11[16.7 µM] | 10 | COc1ccc(S(=O)(=O)Nc2ccc3c(c2)C(=O)N([C@H](C)CO)C[C@@H](C)[C@@H](CN(C)Cc2ccccc2)O3)cc1 |
| 2[16.7 µM] | -8 | COc1cccc(CNC(=O)C[C@H]2C=C[C@@H](NC(C)=O)[C@@H](CO)O2)c1 |
| -3[16.7 µM] | 0 | COc1ccccc1NC(=O)N[C@@H]1C=C[C@@H](CC(=O)N[C@@H](C)c2ccccc2)O[C@H]1CO |
| 1[16.7 µM] | -8 | C[C@H]1CN([C@@H](C)CO)C(=O)c2cc(-c3ccccc3)cnc2O[C@@H]1CN(C)C(=O)Cc1cccnc1 |
| 4[16.7 µM] | 2 | C[C@@H]1CN([C@@H](C)CO)C(=O)c2cc(NC(=O)Nc3ccccc3)ccc2O[C@@H](C)CCCCO[C@@H]1CN(C)C(=O)C1CCCCC1 |
| -20[16.7 µM] | -12 | C[C@H](CO)N1C[C@H](C)[C@@H](CN(C)C(=O)Nc2ccc(F)cc2)OCCCC[C@H](C)Oc2ccc(NC(=O)Cc3ccccc3)cc2C1=O |
| -11[16.7 µM] | -6 | CCNC(=O)C[C@H]1CC[C@H]2[C@@H](COC[C@@H](O)CN2C(=O)C2CCOCC2)O1 |
| 0[16.7 µM] | -1 | O=C(N[C@@H]1CC[C@@H](CCNS(=O)(=O)c2ccc(F)cc2)O[C@H]1CO)c1cccnc1 |
| 20[16.7 µM] | -5 | Cc1ccc(S(=O)(=O)N(C)C[C@@H]2Oc3ncc(-c4cccc(C(F)(F)F)c4)cc3C(=O)N([C@H](C)CO)C[C@@H]2C)cc1 |
| -48[16.7 µM] | -11 | CCCNC(=O)C[C@H]1C[C@H]2c3cc(NS(=O)(=O)c4ccc(OC)cc4)ccc3O[C@H]2[C@@H](CO)O1 |
| -2[16.7 µM] | -24 | CO[C@H]1CN(C)C(=O)c2ccc(NS(=O)(=O)CC(F)(F)F)cc2OC[C@H](C)N(Cc2ccccn2)C[C@@H]1C |

Record cards (already shown). Order of values: Env fusion inh | Yeast UUG start
C[C@H](CO)N1C[C@H](C)[C@@H](CN(C)C(=O)c2ccccn2)Oc2cc(C#CC3CC3)ccc2S1(=O)=O in the list: -19[16.7 µM] | 7
CC(=O)Nc1ccc2c(c1)C(=O)N(C)[C@@H]1CC[C@@H](CC(=O)NCc3ccc4c(c3)OCO4)O[C@H]1CO2 in the list: 10[16.7 µM] | -9
CCCNC(=O)C[C@H]1C[C@H]2c3cc(NS(=O)(=O)c4ccc(OC)cc4)ccc3O[C@H]2[C@@H](CO)O1 in the list: -48[16.7 µM] | -11
Cc1ccc(S(=O)(=O)N(C)C[C@@H]2Oc3ncc(-c4cccc(C(F)(F)F)c4)cc3C(=O)N([C@H](C)CO)C[C@@H]2C)cc1 in the list: 20[16.7 µM] | -5
C[C@H]1CN([C@@H](C)CO)C(=O)c2cc(-c3ccccc3)cnc2O[C@@H]1CN(C)C(=O)Cc1cccnc1 in the list: 1[16.7 µM] | -8

Additional structures follow:
| Env fusion inh | Yeast UUG start | Molecule |
| --- | --- | --- |
| 30[16.7 µM] | 8 | CO[C@@H]1CN(C)C(=O)c2cc(NC(=O)c3nc4ccccc4s3)ccc2OC[C@H](C)N(Cc2ccncc2)C[C@@H]1C |
| -20[16.7 µM] | 19 | C[C@H](CO)N1C[C@H](C)[C@@H](CN(C)CC2CCCCC2)OCCCC[C@H](C)Oc2ccc(NC(=O)c3ccccc3)cc2C1=O |
| -2[16.7 µM] | 8 | CCCN(C)C[C@H]1Oc2cc(C#Cc3cccc(F)c3)ccc2S(=O)(=O)N([C@@H](C)CO)C[C@H]1C |
| -4[16.7 µM] | 15 | O=C(NCC[C@H]1CC[C@H](NS(=O)(=O)c2cccc(F)c2)[C@@H](CO)O1)C1CCC1 |
| 11[16.7 µM] | -11 | CS(=O)(=O)Nc1ccc2c(c1)[C@H]1C[C@@H](CC(=O)NC3CCCCC3)O[C@H](CO)[C@H]1O2 |
| -2[16.7 µM] | -1 | C[C@@H]1CN([C@@H](C)CO)C(=O)c2cc(-c3cccc(F)c3)cnc2O[C@@H]1CN(C)C(=O)C1CCCCC1 |
| -3[16.7 µM] | 10 | CN(C)CC(=O)N[C@H]1CC[C@H](CCNC(=O)Nc2ccc(Cl)cc2)O[C@H]1CO |
| 4[16.7 µM] | 14 | Cc1noc(C)c1S(=O)(=O)N(C)C[C@H]1Oc2ccc(NS(=O)(=O)c3ccc(Cl)cc3)cc2CC(=O)N([C@@H](C)CO)C[C@H]1C |
| -103[16.7 µM] | -4 | CO[C@H]1CN(C)C(=O)c2cc(NC(C)=O)ccc2OC[C@H](C)N(Cc2nccs2)C[C@H]1C |
| -14[16.7 µM] | 6 | Cc1noc(C)c1NC(=O)Nc1ccc2c(c1)C(=O)N([C@@H](C)CO)C[C@@H](C)[C@@H](CN(C)S(=O)(=O)c1cccs1)OCCCC[C@H](C)O2 |
| 0[16.7 µM] | -15 | C[C@@H]1CN([C@H](C)CO)S(=O)(=O)c2ccc(C#Cc3ccccn3)cc2O[C@@H]1CN(C)Cc1ccc(F)cc1 |
| 33[16.7 µM] | -6 | C[C@H]1CN([C@@H](C)CO)C(=O)c2cc(-c3ccccc3)cnc2O[C@H]1CN(C)C(=O)Cc1ccccc1 |
| 23[16.7 µM] | -6 | CCCNC(=O)N[C@H]1C=C[C@H](CC(=O)N2CCN(C)CC2)O[C@@H]1CO |
| 24[16.7 µM] | -9 | CC(C)CC#Cc1ccc2c(c1)O[C@@H](CN(C)Cc1ccncc1)[C@@H](C)CN([C@H](C)CO)S2(=O)=O |
| -43[16.7 µM] | 4 | Cc1ccc(S(=O)(=O)Nc2ccc3c(c2)CC(=O)N([C@H](C)CO)C[C@H](C)[C@H](CN(C)Cc2ccc(Oc4ccccc4)cc2)O3)cc1 |
| 18[16.7 µM] | -23 | C[C@@H]1CN([C@H](C)CO)S(=O)(=O)c2ccc(-c3cccnc3)cc2O[C@H]1CN(C)Cc1ccccn1 |
| -3[16.7 µM] | -12 | COC(=O)C[C@@H]1CC[C@@H]2[C@H](COC[C@@H](O)CN2C(=O)Nc2cccc(F)c2)O1 |
| 12[16.7 µM] | 28 | COc1ccccc1NC(=O)N[C@@H]1CC[C@H](CC(=O)N2CCC(Cc3ccccc3)CC2)O[C@@H]1CO |
| -22[16.7 µM] | -6 | C[C@@H]1CN([C@@H](C)CO)S(=O)(=O)c2ccc(C#C[C@@H](C)O)cc2O[C@@H]1CN(C)C(=O)CC1CC1 |
| -2[16.7 µM] | 26 | CCC(=O)N(C)C[C@@H]1Oc2cc(-c3ccc(C#N)cc3)ccc2S(=O)(=O)N([C@@H](C)CO)C[C@H]1C |
| -199[16.7 µM] | -3 | CC(C)c1cn(CC[C@@H]2CC[C@@H](NC(=O)c3cccc(F)c3)[C@@H](CO)O2)nn1 |
| 11[16.7 µM] | -1 | CC(=O)N(C)C[C@@H]1Oc2cc(-c3ccccc3F)ccc2S(=O)(=O)N([C@@H](C)CO)C[C@@H]1C |
